# PrP 5UTR inh: inhibition of PrP 5' UTR reporter expression; inhibition, % (concentration not given with the values); 340,000 compounds, 0.35% hits; cell-based PrP 5' UTR mRNA reporter, plate reader;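 active = every replicate at 50% or more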;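 also: 0 = median of the neutral control wells; tested in H4 reporter cells; numbers are from one replicate; inactives centre near -14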
# Mtb hypoxia inh: PubChem AID 1159583. M. tuberculosis hypoxia-regulated fluorescent reporter, fluorescence. fluorescence inhibition, % (concentration not given with the values). 300,000 compounds, 0.1% hits;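 active = 35 to 45% if threefold the growth effect, above 45% if 1.5-fold the growth effect; inactive = the rest, general growth blockers included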;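 also: wells of about 50 µL received 100 nL stock; 0% = vehicle wells and 100% = reference inhibitor wells; whole bacteria with a GFP reporter of the hypoxia response; strong numbers were not always called active; many hits fall short of the cut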
# RN4220 kill: growth inhibition of S. aureus RN4220, primary screen, OD600. 16 h. inhibition, % (test concentration not listed). 330,000 compounds, 0.33% hits. AID 1259311, 2017;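 active = z-score of -3 or lower and OD600 up to 0.18 on both plates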;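 also: plate controls were untreated cells for no effect and reference antibiotic for full effect; stock transfer was 100 nL into about 80 µL; one replicate is shown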
# Bead autofluor: flagged as autofluorescent in microsphere protease counterscreen; compound autofluorescence counterscreen, microsphere flow cytometry; stronger effect = higher value; fluorescence intensity (no concentration beside the values); 360,000 compounds, 3.1% hits;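 active = at least 3 SD above the mean of all compounds, about 16000 in these data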;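 also: 100 nL of 1 mM stock went into each well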
# BJeLR lethal: MLPCN primary cell-based screen for lethality selective to Ras in HRASV12 cells; BJeLR (HRASV12) viability, CellTiter-Glo ATP luminescence, 48 h; reference of the scale not given here; inhibition, % (concentration not given with the values); 300,000 compounds, 0.17% hits;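 active = replicate mean above 50%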;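 also: 50 nL library stock added to about 25 µL; numbers are from one replicate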
# Sa ugtP lethal: growth inhibition of ugtP-null S. aureus, primary screen, RN4220 ugtP deletion, OD600 | 16 h; some inactives read as strong as hits | growth inhibition, % (no concentration beside the values) | 330,000 compounds, 0.54% hits | AID 1259309, 2017;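 active = z-score under -3 and OD600 up to 0.15 on both plates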;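 also: plate controls were untreated wells for no effect and antibiotic for full effect; wells of about 80 µL received 100 nL stock; the first replicate is given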
# Mtb hypoxia inh growth: also measured in Mtb hypoxia inh; calls as there; growth inhibition, %; measured here: M. tuberculosis growth (absorbance);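 0% = vehicle and 100% = reference antibiotic; read after six days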
# Active calls of the source: *; x = no result given; & = joins results of further samples.
# Each structure is followed by: Mtb hypoxia inh, Sa ugtP lethal, Mtb hypoxia inh growth, BJeLR lethal, Bead autofluor, RN4220 kill, PrP 5UTR inh
CC1CC(C)CN(C(=O)C2CCN(C(=O)Nc3ccccc3)CC2)C1 (stereo unspecified)
  x, x, x, -7, 5419, x, -20
c1ccc(-c2cccc(-c3ccccc3)n2)cc1
  -7, 30, 8, 5, 3277, -3.3, -36
CCOC(=O)CSc1nc(-c2ccccc2)ns1
  -3, -3, -2, 3, 3394, 7.5, -4
CCN=C(NCC)SC1CC(=O)N(c2cccc(OC)c2)C1=O (stereo unspecified)
  11, 5, 2, -14, 7541, 2.4, -19
CCOC(=O)c1c(S(=O)(=O)NCC(=O)Nc2ccc(OC)cc2)c(C)n(C)c1C
  -8, 1, -1, 0, 4881, -2.4, -16
Cc1cc(C)c(S(=O)(=O)N2CCC(C(=O)NCc3ccncc3)CC2)c(C)c1
  9, 5, 5, -13, 5416, 2.7, -13
Cn1c(O)c(N=Nc2ccccc2[N+](=O)[O-])c2ccccc21
  9, -4, 5, -3, 3867, 4.8, -49
COc1cc2c(cc1OC)C1=C(C#N)CN(CC(=O)O)CN1CC2
  3, 19, 6, -2, 4602, 19, -7
N#Cc1cnn2c(C(F)(F)F)cc(-c3ccccc3)nc12
  -2, -2, 3, 5, 3897, 4.4, 3
OC(COc1ccc(Cl)cc1)CN1CCN(c2ccccc2)CC1 (stereo unspecified)
  -7, -2, 2, -7, 3056, -5.7, -20

# In the list so far, four have sulfur:
# Each structure is followed by: Mtb hypoxia inh, Sa ugtP lethal, Mtb hypoxia inh growth, BJeLR lethal, Bead autofluor, RN4220 kill, PrP 5UTR inh
CCOC(=O)CSc1nc(-c2ccccc2)ns1
  -3, -3, -2, 3, 3394, 7.5, -4
CCN=C(NCC)SC1CC(=O)N(c2cccc(OC)c2)C1=O (stereo unspecified)
  11, 5, 2, -14, 7541, 2.4, -19
CCOC(=O)c1c(S(=O)(=O)NCC(=O)Nc2ccc(OC)cc2)c(C)n(C)c1C
  -8, 1, -1, 0, 4881, -2.4, -16
Cc1cc(C)c(S(=O)(=O)N2CCC(C(=O)NCc3ccncc3)CC2)c(C)c1
  9, 5, 5, -13, 5416, 2.7, -13

# Remaining list, next part:
# Each structure is followed by: Mtb hypoxia inh, Sa ugtP lethal, Mtb hypoxia inh growth, BJeLR lethal, Bead autofluor, RN4220 kill, PrP 5UTR inh
COc1ccc(C2C3=C(CC(C)(C)CC3=O)Nc3nc(C)nn32)cc1OC (stereo unspecified)
  4, 13, -3, -14, 5758, 1.8, x
Cc1oc2ccc(Br)cc2c(=O)c1-c1nn[nH]n1
  -3, 4, 5, -2, 5256, 1.4, -30
CCOC(=O)c1c(CC(C)C)csc1NC(=O)COC(=O)C1=NNC(=O)CC1
  2, -5, 0, 0, 5142, 4.5, -9
Cc1ccc(-n2c(-c3ccccc3)c[nH]c2=S)cc1
  12, 7, 8, 8, 8853, 0.8, -30
C#CCOCCOCCOCCNc1nc(N2CCN(C(=O)C(CCC(=O)O)n3cc(C(N)Cc4ccc(O)cc4)nn3)CC2)nc(N2CCN(C(=O)C(C(C)CC)n3cc(C(N)CC(C)C)nn3)CC2)n1 (stereo unspecified)
  12, -9, 7, x, x, 0.3, x
COc1ccccc1CN1CCCC(CN(CCN(C)C)C(=O)c2ccc(C)cc2)C1 (stereo unspecified)
  16, 8, -3, -6, 3997, -0.1, -2
Cc1cc(C)cc(C(=O)NCC(=O)OCC(=O)NCc2ccco2)c1
  5, -1, 4, 1, 4103, -2.1, -11
O=C1C(Cc2ccccc2)NCC=CCC(c2ccc(Cl)cc2)N1Cc1ccccc1 (stereo unspecified)
  9&7, -33&-23, 7&11, x, x, 13&6.7, x
Cc1cccc(OCc2nc(C#N)c(N3CC(C)CC(C)C3)o2)c1 (stereo unspecified)
  x, 4, x, -10, 6124, 1.1, -12
O=C1CC(N2CCOCC2)C(=O)N1CCc1ccccc1 (stereo unspecified)
  x, -2, x, -4, 4673, -2.1, -24

# Profiles, looked up by structure. Screens in order: Mtb hypoxia inh | Sa ugtP lethal | Mtb hypoxia inh growth | BJeLR lethal | Bead autofluor | RN4220 kill | PrP 5UTR inh
# Shown for Cc1cc(C)cc(C(=O)NCC(=O)OCC(=O)NCc2ccco2)c1 : 5 | -1 | 4 | 1 | 4103 | -2.1 | -11
# Shown for O=C1CC(N2CCOCC2)C(=O)N1CCc1ccccc1 (stereo unspecified) : x | -2 | x | -4 | 4673 | -2.1 | -24
# Shown for Cc1oc2ccc(Br)cc2c(=O)c1-c1nn[nH]n1 : -3 | 4 | 5 | -2 | 5256 | 1.4 | -30
# Shown for CCOC(=O)c1c(CC(C)C)csc1NC(=O)COC(=O)C1=NNC(=O)CC1 : 2 | -5 | 0 | 0 | 5142 | 4.5 | -9

# (further entries)
# Each structure is followed by: Mtb hypoxia inh, Sa ugtP lethal, Mtb hypoxia inh growth, BJeLR lethal, Bead autofluor, RN4220 kill, PrP 5UTR inh
CC(C)(Oc1ccc(Cl)cc1)C(=O)Nc1cccnc1
  1, -7, 9, 2, 3438, -10, -21
O=C(CN1C(=O)NC2(CCCCCC2)C1=O)N1CCCCC1
  4, 7, 1, x, 4059, 0.7, -6
Brc1ccccc1-c1nc(-c2ccccc2)no1
  x, 12, x, 3, x, 2.9, x
CO/N=C/C(c1ncc(C(F)(F)F)cc1Cl)S(=O)(=O)c1ccccc1 (stereo unspecified)
  x, x, x, 1, 6146, x, 2
COc1ccccc1OCC(=O)NCCC1=CCCCC1
  17, -9, 11, 10, 2611, 8.4, -5
COc1ccc(CN2C(=O)NC3(CCCC3)C2=O)cc1F
  10, 0, 6, 5, 4000, 1.5, -27
CCOc1ccc(-n2c(=O)[nH]c3sc4c(c3c2=O)CCCC4)cc1
  2, -2, 2, 2, 4547, 2.9, -22
Cc1ccc([C@@H]2[C@@H]3C(=O)N(C)C(=O)[C@@H]3[C@@H]3C(=O)Nc4ccccc4C(=O)N23)cc1
  x, x, x, 2, 2904, x, 4
CCOc1ccc(C2C3=C(Nc4nc(N)[nH]c(=O)c42)c2ccccc2C3=O)cc1 (stereo unspecified)
  x, x, x, 10, 8457, x, -3
CCOc1cc2c(cc1OCC)C(c1ccccc1)N(c1ccc(C(=O)O)cc1)C(=O)C2 (stereo unspecified)
  1, 7, 1, 5, 4121, 3.0, 0
Cc1cc(-c2ccc(Cl)cc2)n2ncnc2n1
  2, -1, 15, -9, 5587, 2.7, x
C/C(=N\NC(=O)Cc1c(F)cccc1Cl)c1cccnc1
  x, x, x, 0, 5573, x, -8
O=C(NCC1CCCO1)c1ccccc1-c1nc(-c2ccccc2Cl)no1 (stereo unspecified)
  12, 10, 5, 1, 5968, 4.7, -22
O=C(NCCOc1ccccc1)c1cc(C(=O)NCCOc2ccccc2)cc([N+](=O)[O-])c1
  -9, 25, -3, 9, 10957, -7.6, -23
Cc1c(NC(=O)COC(=O)C2=COCCO2)cccc1[N+](=O)[O-]
  6, 9, 12, 0, 5138, 2.1, -17
O=C(O)COc1ccc(Br)cc1C=NO
  16, 3, 6, x, x, 5.8, x
Cc1nc(CNS(=O)(=O)c2cccc(F)c2)cs1
  2, 0, -14, -5, 5740, -2.5, -10
Cc1cc(N2CCOCC2)c2c(N)c(C)cc(C)c2n1
  x, -6, x, x, 4422, 0.0, -18
COc1cc(CCNC(=O)c2ccccc2NC(=O)C2=C(C)OCCS2)cc(OC)c1OC
  -4, 1, -1, -4, 4620, -2.5, -6
CC(=O)Nc1ccc(C(=O)NCC2(N3CCCCC3)CCCCC2)cc1
  6, 1, -2, 6, 7898, 2.3, -22
CCOc1cc(/C=N/Nc2nc(Nc3ccccc3)nc(N3CCCCC3)n2)ccc1OCC(=O)O
  x, x, x, -11, 2105, x, -4
O=C(COc1ccc(Cl)cc1)OCC(=O)c1ccc[nH]1
  -3, 1, -8, x, 3889, 3.8, -10
CC1CC(C)CN(C(=O)Cn2c(=O)n(CCCC(=O)NCc3ccco3)c(=O)c3sccc32)C1 (stereo unspecified)
  -1, 11, -5, 0, 4742, 3.8, -11
Cc1cc(NC(=O)c2ccccc2F)ncc1NC(=O)c1cccs1
  -3, 6, -3, 13, 2577, 1.4, -35
CCCc1nn(C)c(C(N)=O)c1[N+](=O)[O-]
  4, 4, 3, 0, 5129, 3.2, -20
CN(C)NC(=S)Nc1ccc(S(=O)(=O)N2CCCCC2)cc1
  7, 6, 5, -11, 4495, 2.2, 5
C[C@@H](C(=O)Nc1cccnc1)n1c(=O)[nH]c2ccccc2c1=O
  2, -2, 3, 7, 5692, 1.3, -10
COCCCNCCOCCOc1c(OC)cccc1OC
  9, 5, 5, -11, 2262, 6.8, -9
COc1ccc(/C=C2/CCc3ccccc3C2=O)cc1OC
  10, 5, 3, 14, 2197, 14, -25
O=C(O)c1cccc(N2C(=O)c3cc4cccc(Br)c4cc3C2=O)c1
  -1, 8, 10, 1, 3406, 3.0, -13
O=C(CSc1nc2c(c(=O)n1-c1ccc(Cl)cc1)SCC2)Nc1nccs1
  5, 35, 7, x, 6665, -0.6, -17
COc1ccc(-c2nnc(SCC(=O)NCc3cccs3)n2C)cc1
  10, -2, 5, -5, 6839, 1.8, -25
Cc1cc(C)nc(-n2c(C)nc3cc(Cl)ccc3c2=O)c1
  8, -3, 2, 4, 3055, 4.8, -15
COCCCC1CCN(C(=O)C2CCC(=O)N(Cc3cccc(F)c3)C2)CC1 (stereo unspecified)
  3, -2, -1, -1, 5314, 2.9, -13
CC(=O)c1cccc(NC(=O)/C(=C/c2ccncc2)NC(=O)c2ccccc2)c1
  x, x, x, -13, 4961, x, -6
CCOCCN(C=O)c1cccc(OC)c1
  7, 11, 3, -8, 4308, 5.3, -5
Cc1sc2nc(CN(C(=O)NC3CCCCC3)C3CCCCC3)[nH]c(=O)c2c1C
  -8, -2, -14, 4, 9591, -0.9, -26
CCCN(CC(=O)Nc1ccccc1C)C(=O)C1CCN(S(=O)(=O)c2cccc(C(F)(F)F)c2)CC1
  -2, 0, 2, 1, 5209, -1.1, -23
CNC(=S)N1N=C(c2ccc(C)cc2)CC1c1ccc(Br)cc1 (stereo unspecified)
  0, -3, -1, -6, 23443*, -0.9, -40
Cn1c(SCC(=O)c2ccc(O)c(O)c2)nnc1-c1ccccc1
  5, 9, 0, -5, 3932, 6.6, -13
O=C(Cn1cncn1)N/N=C/c1ccccc1Cl
  x, x, x, -5, 3135, x, -11
COc1cc2c(cc1OC)-c1nnc(C)n1C(C)(C)C2
  3, -5, 21, x, 5717, 1.4, -2
COc1cccc(CCC(=O)O)c1OC
  -14, -1, 0, 11, 3971, 1.4, -25
CN1CCN(C(=S)c2cn(Cc3ccc(F)cc3)c3ccccc23)CC1
  3, 11, 15, 2, 4145, -2.8, -49
COc1cc(/C=N/NC(=O)c2cn(-c3cccc(C)n3)cn2)ccc1O
  x, x, x, 0, 4356, x, -8
Cc1nn(-c2ccccc2)c(C)c1C(=O)OCC(=O)Nc1ccc2c(c1)OCO2
  7, 9, -1, -6, 4294, -2.7, -8
Cc1ccc(NCC(=O)NN=Cc2ccc(OC(=O)c3ccco3)cc2)cc1
  3, -3, 8, x, x, 5.1, x
N#C/C(=C/c1cn(CC(=O)O)c2ccccc12)c1ccc(F)cc1
  2, -2, 13, -4, 2093, 4.7, -18
CCOC(=O)[C@@H]1[C@H]2COc3cc(OC)ccc3[C@@H]2N2C(=O)N(c3cccc(Cl)c3)C(=O)[C@@]12C
  x, x, x, 8, 2982, x, -16

# Source: PubChem (several laboratories)
